# VACV E9 pol inh – vaccinia E9 polymerase processive synthesis inhibitors, primary screen, biochemical, absorbance; Vaccinia virus DNA polymerase (E9) processive complex; in vitro processive DNA synthesis, absorbance read-out; stronger effect = lower value; some inactives read as strong as hits; normalized absorbance, % (concentration not given with the values); actives 0.94% (n = 46,000);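 active = replicate mean up to 90% and picked by the depositor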;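 note: 100% = median of the test wells of a plate; 100 nL library stock went into each well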
# Numbers without * were called inactive. These rows are one share of the data. The share of hits here may be higher or lower than overall.
mol | VACV E9 pol inh
Cc1ccc2oc(=O)n(CCOc3ccccc3)c2c1 | 110
NC(=O)CSc1nnc(-c2c[nH]c3ccccc23)n1-c1ccc(F)cc1 | 90
CCSc1nc2c(c(=O)[nH]1)C(c1ccccc1)C1=C(CCCC1=O)N2 (stereo unspecified) | 103
CCCc1nc(Sc2nncn2C)c2sc(=S)n(-c3ccccc3)c2n1 | 83
COc1ccc(-n2nnnc2-c2c[nH]c3ccc(Cl)cc23)cc1 | 98
COc1cc2c(cc1O)CC1c3c(c(OC)c(OC)c(OC)c3-2)CCN1C (stereo unspecified) | 92
O=C(O)C1CSC2(CCCCC2)N1 (stereo unspecified) | 100
Cc1ccc(S(=O)(=O)c2ccc(/C=C/c3ccco3)cc2)cc1 | 100
O=C(O)CCP(=O)(O)CN1CCCCCC1 | 100
CC(c1ccccc1)C1CC(=O)N(c2ccc(OC(F)(F)F)cc2)C1=O (stereo unspecified) | 100
Cc1cc(C)n(-c2ccc(Cl)c(C(=O)OCc3ccccc3)c2)n1 | 95
CCc1ccc(NC(=O)c2cc3c(=O)oc4ccc(C)cc4c3s2)cc1 | 102
COc1ccc(-c2ccc(C3C(C#N)=C(N)OC4=C3C(=O)CCC4)o2)cc1 (stereo unspecified) | 94
CC(C)(C)c1ccc(-c2n[nH]c(=S)n2N=Cc2ccccn2)cc1 | 100
Cc1[nH]c2ccccc2c1SCCNC(=O)C(C)C | 100
C/C(=N\S(=O)(=O)c1ccc(C)cc1)N1CCCN(S(=O)(=O)c2ccc(C)cc2)C1C(C)C (stereo unspecified) | 100
CCOC(=O)c1ccc2nc(NC(=O)C3CCCCC3)sc2c1 | 92
CCOC(=O)CCn1cc(F)c(=O)[nH]c1=O | 99
OCCn1c(-c2ccccc2)cn2c3ccccc3nc12 | 102
NCCSc1nc2ccccc2[nH]1 | 100
COc1ccccc1C(=O)OCC(=O)C(C)(C)C | 102
O=C(O)C1C(c2ccccc2)C(C(=O)N2CCOCC2)C1c1ccccc1 (stereo unspecified) | 103
O=C1NC(=Nc2ccc(F)cc2)S/C1=C/c1ccc(N2CCCC2)o1 | 102
CCCCCCCCCCCCCCCCOC[C@@H](COP(=O)([O-])OCC[N+](C)(C)C)OC(C)=O | 99
COc1cccc2cc(-c3csc(Nc4cccc(C(F)(F)F)c4)n3)c(=O)oc12 | 100
CC(C)CN(CC(C)C)c1ncnc2c1cnn2-c1ccc(Cl)cc1 | 103
O=C(c1ccc2snnc2c1)N1CCCCC1 | 97
CCOC(=O)C1=C(NC(=S)Nc2ccccc2)CC2=C1CCCC2 | 101
Cc1cc(C)c(C#N)c(SCCC(=O)Nc2nc(-c3ccccc3)ns2)n1 | 103
CCOC(=O)N1CCC(NC(=O)CCc2nc(C3=CCN(C)CC3)no2)CC1 | 96

# Carrying on.
mol | VACV E9 pol inh
C/C(Nc1ccccc1Oc1ccccc1)=C1/CCOC1=O | 108
Cc1nc2ccc3nc(NC(=O)C4=COCCO4)sc3c2s1 | 114
NCCc1c(C(=O)O)[nH]c2ccc(Br)cc12 | 101
Cc1cc(C(=O)OCC(=O)N2CCCCC2)c(C)n1-c1ccccc1 | 104
CCn1c(=NC(=O)Cc2ccccc2)sc2cc(Br)ccc21 | 98
c1nc(N2CCCCCC2)c2[nH]cnc2n1 | 100
COc1ccc(C(=O)Nc2nc3ccc(F)cc3s2)cc1 | 100
COc1ccccc1CNC(=O)COc1ccccn1 | 100
O=C(CSc1nc2ccccc2s1)NC1CCCCC1 | 97
O=C(c1cccs1)N1CCCn2c(SCc3ccccc3)nnc21 | 82
O=C(CSc1ccc2ccccc2c1)Nn1cnnc1 | 104
O=C(CSc1cccc[n+]1[O-])c1ccc2c(c1)-c1ccccc1C2 | 88
N=c1n(CC(=O)c2ccco2)c2ccccc2n1Cc1ccccc1 | 100
C[N+]12CCCCC1C(CN1C(=O)c3ccccc3C1=O)CCC2 (stereo unspecified) | 100
O=[n+]1c(CO)c(CO)n([O-])c2ccccc21 | 100
Cc1cc(N)cc2[nH]c(-c3ccc(N)cc3)nc12 | 60*
CCOC(=O)CSc1nc(Nc2ccc(OC)cc2)c2cnc(N(CC)CC)nc2n1 | 101
CC(C)C(=O)Nc1ncc(Cc2ccc(Cl)cc2)s1 | 97
Cc1ccc(CN2C(=O)CSc3ccc(NC(=O)NCCC4=CCCCC4)cc32)cc1 | 103
Cc1nn(-c2ccccc2)c(N)c1C(NC(=O)c1ccccc1)(C(F)(F)F)C(F)(F)F | 100
COc1nc(NCC2CCCO2)nc(N2CC3CC(C2)c2cccc(=O)n2C3)n1 (stereo unspecified) | 100
Cc1c(C(=O)N(C)C)sc2[nH]c(=O)n(-c3ccccc3C(F)(F)F)c(=O)c12 | 102
CCN(CC)C(=O)CCn1c(=O)oc2ccccc21 | 98
N#CNC(=NC1CCCCC1)NC1CCCCC1 | 100
CCOC(=O)N1CCC(NC(=O)CCCC(=O)O)CC1 | 107
CC(C)c1ccc(/C=C\C(=O)O)cc1 | 109
COc1ccc(-c2coc3cc4oc(=O)c(CC(=O)O)c(C)c4cc23)cc1 | 86
N#Cc1c(C(F)(F)F)cc(-c2cccs2)nc1S/C=C/C(=O)c1ccccc1 | 108
CC1(C)Cc2ccccc2C(CSc2nc(-c3ccco3)cc(C(F)(F)F)n2)=N1 | 100
O=S1(=O)CCN(Cc2ccc(Cl)c(Cl)c2)CC1 | 100

# Further structures
mol | VACV E9 pol inh
CCN(CC)S(=O)(=O)c1cc(C(=O)NC(C)(C)C)ccc1Cl | 99
Cc1cc2nc(C(F)(F)F)n3c4ccccc4nc3n2n1 | 104
CCOc1ccccc1CNC(=O)Cn1c(C)c2cnn(-c3ccccc3)c(=O)c2c1C | 109
CN(C)c1ccncc1C(O)C(F)(F)F (stereo unspecified) | 110
Cc1cccc(C(=O)OC2CCCN(C)C2)c1C (stereo unspecified) | 106
Cc1nn(Cc2nnc(-c3cc(C(F)(F)F)cc(C(F)(F)F)c3)o2)c(C)c1Br | 104
Nc1c(-c2n[nH]c(=S)n2-c2ccc(Cl)cc2Cl)cnn1-c1ccccc1 | 110
CC(NC(=O)CSc1nncn1C)c1ccccc1 (stereo unspecified) | 102
CCCc1nc(N)c(C#N)c(-c2ccccc2)c1CC | 100
Cc1ccc(C)n1NC(=O)c1ccc(Cl)cc1 | 98
CCOc1ccc(NC(=O)CN(Cc2ccccc2)S(=O)(=O)c2ccc(C)cc2)cc1 | 100
Cc1ccc(CNC(=O)[C@@H](c2ccccc2)N2Cc3ccccc3C2=O)cc1 | 104
O=C(OCC1CC(c2ccccc2)=NO1)c1cccc(C(=O)OCC2CC(c3ccccc3)=NO2)n1 (stereo unspecified) | 89
Cc1ccc(/C=N/c2sc(C)c(C)c2C#N)s1 | 99
COc1ccc2c(c1)c(C(=O)N1CCCC1)c(C)n2Cc1ccccc1 | 98
COc1cc(Br)cc2cc(C(=O)N3CCN(c4cc(C)ccc4C)CC3)c(=O)oc12 | 100
Brc1ccc(CSc2nccn2Cc2ccccc2)cc1 | 91
CC(C)(C)C1(C)OC(=O)C(=Cc2ccc(Br)o2)C(=O)O1 (stereo unspecified) | 97
COc1ccc(NC(=O)Cn2ccc3ccccc3c2=O)cc1OC | 89
O=C(c1cc(Cl)nc2ccccc12)N1CCc2ccccc2C1 | 96
CN(C)/C=C1/C=C(c2ccccc2)SC1=S | 98
Cc1ccccc1C=Nc1ccccc1C#N | 100
COC(=O)C(C)NC(=O)c1cn(-c2ccccc2)nc1-c1ccc(F)cc1 (stereo unspecified) | 97
Cc1occc(=O)c1OC(=O)c1ccc(Cl)cc1 | 95
Cc1cc(C)nc(NS(=O)(=O)c2ccc(Br)cc2)n1 | 100
COc1cccc(NCc2cn(-c3ccccc3)nc2-c2cccs2)c1 | 97
N#CSCC(=O)c1cccs1 | 61*
CCCNC(=O)Cn1c2ccccc2c2nc(=O)cc(C)n21 | 98
CCn1c2ccccc2c2cc(/C=C3\Cc4ccccc4C3=O)ccc21 | 104
CN(C(=O)CSC(=S)N1CCCC1)c1ccccc1 | 99

# Structural class, the compounds so far containing bromine (7)
mol | VACV E9 pol inh
NCCc1c(C(=O)O)[nH]c2ccc(Br)cc12 | 101
CCn1c(=NC(=O)Cc2ccccc2)sc2cc(Br)ccc21 | 98
Cc1nn(Cc2nnc(-c3cc(C(F)(F)F)cc(C(F)(F)F)c3)o2)c(C)c1Br | 104
COc1cc(Br)cc2cc(C(=O)N3CCN(c4cc(C)ccc4C)CC3)c(=O)oc12 | 100
Brc1ccc(CSc2nccn2Cc2ccccc2)cc1 | 91
CC(C)(C)C1(C)OC(=O)C(=Cc2ccc(Br)o2)C(=O)O1 (stereo unspecified) | 97
Cc1cc(C)nc(NS(=O)(=O)c2ccc(Br)cc2)n1 | 100

# Carrying on:
mol | VACV E9 pol inh
Fc1ccc(-c2cn3c(n2)-c2ccccc2C3)cc1 | 90
COc1ccc(NS(=O)(=O)c2ccc(Oc3c(C#N)cccc3C#N)cc2)cc1 | 104
CC1(C)CC(=O)c2c(-c3cccnc3)n[nH]c2C1 | 100
CCOC(=O)c1cnn2c(N)c(C#N)cnc12 | 100
CC(NC(=O)c1ccccc1C(=O)NC(C)c1ccc2c(c1)OCCO2)c1ccc2c(c1)OCCO2 (stereo unspecified) | 105
NNC(=O)CCc1ccccc1 | 100
Cc1ccc(-c2csc(-c3cccnc3)n2)cc1C | 101
Cc1nn(C)c(Nc2ccc(Br)cc2)c1Br | 94
Clc1ccc2nc(N3CCNCC3)nc(-c3ccccc3)c2c1 | 100
CCCOC(=O)c1ccc(NCC(=O)Nc2ccc(C)cc2)cc1 | 86
OC(CNC1CCCCCC1)C(F)(F)F (stereo unspecified) | 111
COC(=O)C1=C(N)OC2=C(C(=O)CC(C)(C)C2)C1c1ccccc1 (stereo unspecified) | 118
CC1CCCN(c2ccc3nncn3n2)C1 (stereo unspecified) | 98
COc1ccc(CCNC(=O)c2cc(C)no2)cc1OC | 104
CC1=NNC(=O)C1Oc1ccc(Cl)cc1Cl (stereo unspecified) | 94
O=C(C1CCN(S(=O)(=O)c2cccs2)CC1)N1CCc2ccccc2C1 | 101
CN(C(=O)c1cc(-c2ccccc2)n[nH]1)C1CCCCC1 | 108
CC(C)(Oc1ccc(Cl)cc1)C(=O)OCC(=O)N1CCCc2ccccc21 | 99
CCC1(C)Nc2ccccc2-c2nc3ccccc3n21 (stereo unspecified) | 96
Cc1ccc2[nH]c(=O)c3cc(C(=O)NCCN(C)Cc4ccccc4)sc3c2c1 | 81
Cc1oc(-c2ccc(Cl)cc2)cc1-c1nn2c(-c3ccco3)nnc2s1 | 98
Cc1nnsc1C(=O)NC1CCCCC1 | 117
O=C(NC1CCCCCCC1)c1cc(-c2ccc(Cl)cc2)n[nH]1 | 101
O=C(NC1CCCCC1)OCn1c(=O)oc2cc(Cl)ccc21 | 100
N#CC(C#N)=C(/C=C/c1cccs1)C1CC1 | 99
O=c1/c(=C\c2ccc(F)cc2)sc2n1CCN=2 | 98
O=S(=O)(c1cc(Cl)cc(Cl)c1)N1CC=C(c2ccccc2)CC1 | 105
O=C1NCCN1CCN1C(=O)c2ccccc2NC1c1ccccc1 (stereo unspecified) | 90
O=C(CN1CCCCC1)N1c2ccccc2Sc2ccccc21 | 109
N=C1/C(=C\c2cccn2-c2ccc3ccccc3c2)C(=O)N=C2SC=NN12 | 98

# (more compounds)
mol | VACV E9 pol inh
CN(CC(=O)C1=C(c2ccc(Br)cc2)C(=O)c2ccccc2C1=O)c1ccccc1 | 100
CCOc1ccc(C(=O)/C=C2/NCCNC2=O)cc1 | 100
CCN(CC)c1ccc2cc(S(=O)(=O)c3ccc(Cl)cc3)c(=O)oc2c1 | 107
Cc1cccc(C(=O)NCCN2C(=O)S/C(=C\c3ccc(F)cc3)C2=O)c1C | 104
CS(=O)(=O)c1ccc(Cl)c(C(=O)O)c1 | 97
CCOc1ccccc1CN1C(=O)c2ccccc2C1C(=O)NCCCN1C(C)CCCC1C (stereo unspecified) | 95
COc1ccc(C2(C(=O)NCc3ccco3)CCOCC2)cc1 | 109
O=C(/C=C/c1ccco1)Nc1ccc(CN2CCOCC2)cc1 | 100
Cc1ccc(CSc2nc3ccncc3n2CC(=O)N(C)c2ccccc2)cc1 | 101
OC1(/C=C/CN2CCCCC2)CCCCC1 | 101
O=C(Cn1cnc2ccccc21)OCC(=O)N1CCc2ccccc21 | 101
COC(=O)c1cc2c(=O)n3ccccc3nc2n(C(C)C)c1=N | 99
CC(C)c1cc(NS(=O)(=O)c2ccccc2)c(O)c(C(C)C)c1 | 100
CCCn1c(CO)nc2ccccc21 | 100
O=C(O)C1CCC(Cn2c(SCc3ccccc3Cl)nc3ccsc3c2=O)CC1 (stereo unspecified) | 84
O=C(Cn1nnc(-c2ccc3c(c2)OCO3)n1)N1CCOCC1 | 101
O=S(=O)(c1ccccc1)n1ccc(-c2ccc(C#Cc3ccccc3)cc2)n1 | 110
Cc1nc2ccccc2nc1SCC(=O)NC1CCCCC1 | 101
Oc1ccccc1Oc1ccccc1 | 101
O=C(COc1ccc(Cl)cc1)N1CCCC1 | 97
O=C(O)CSC1CCC(=O)N1 (stereo unspecified) | 106
CCn1cnc(C(=O)NC)c1C(=O)NC | 104
CN1CCC(N(C)C(=O)c2cc(-c3ccccc3Cl)nc3ccccc23)CC1 | 97
Cc1ccnc2ccc(SC(F)(F)F)cc12 | 99
N#Cc1ccc(-c2csc(-c3ccc(C(F)(F)F)cc3)n2)cc1 | 100
Cc1nc(C)c(I)c(Oc2ccc(C#N)cc2)n1 | 102
O=C1CSC(=NC2CCCC2)N1 | 97
Cc1ccc(-c2cc3cc(C)c(C#N)c(N4CCCCCC4)n3c2)cc1 | 102
Oc1oc(C=Nc2ccc(OC(F)(F)F)cc2)c2ccccc12 | 117
FC(F)(F)c1cccc(N=Cc2ccccc2)c1 | 98
CN(C)c1ccc(P(=O)(OC2CCCCC2)C(O)c2ccccc2)cc1 (stereo unspecified) | 102
NCC(CC(=O)O)c1ccc(Cl)cc1 (stereo unspecified) | 94
O=C(OCc1cccc(COC(=O)c2ccccc2)c1F)c1ccccc1 | 100

# Compound activity deposited in PubChem BioAssay by ICCB-Longwood Screening Facility, Harvard Medical School.
